Screening data: PubChem BioAssay, National Center for Advancing Translational Sciences (NCATS)
ClpP mod: qHTS Assay for Activators of ClpP; purified B. subtilis ClpP, FRET peptide cleavage, 20 min; Potency, µM (doses to about 57.5 µM), inactives show at the top dose activity change, negative = active; 1.9% of 340,000 active; AID 651965, 2013; active = well fitted falling curve with a large enough effect; inconclusive = small, poorly fitted or top-dose-only effect; inactive = no such curve, though single readings can be large or run the other way; note: potency is the fitted concentration of half-maximal effect; the source files actives as falling curves though it sought activators and does not explain the sign; nearly all actives have a fitted effect of over 65% in size; many hits overshoot -100%
Target sequence (P80244 whole entry, looked up): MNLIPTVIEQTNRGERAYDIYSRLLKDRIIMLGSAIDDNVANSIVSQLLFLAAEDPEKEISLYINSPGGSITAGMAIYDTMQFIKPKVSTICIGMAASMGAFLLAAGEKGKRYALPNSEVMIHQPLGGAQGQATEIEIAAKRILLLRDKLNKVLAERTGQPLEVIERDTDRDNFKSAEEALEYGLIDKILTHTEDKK
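FRET quenching reversal measured ClpP activation: 10 microg/mL B. subtilis ClpP at pH 8 with the FRET-FV decapeptide, read at 430 nm after 320 nm excitation. The 20-min minus 0-min signal was scaled between DMSO/no-enzyme wells and ADEP (5.8 microM final).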
Menin-MLL FL inh: displaces fluorescein MLL peptide from human menin; Fluorescence polarization, fluorescein-MLL peptide displacement from menin; FP activity change, % at 61.4 µM; 290,000 tested, under 10 active; AID 1766; inconclusive = falling polarisation curve, or a change in total fluorescence; inactive = total fluorescence flat and polarisation flat or rising; no compound was filed as active; the % refers to the polarisation; negative = inhibition;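 note: % of control where 0% means no effect; inhibitors lower the polarisation; unlabelled MLL peptide was the positive control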
CtBP-E1A blk: inhibitors of CtBP/E1A interaction. AlphaScreen GST-E1A/His-CtBP binding, 1536-well; stronger effect = lower value; control for the full effect not named in the record. activity change, % (no concentration beside the values). 0.49% of 340,000 active. AID 651724; in the data active means activity change below about -65%; inconclusive means about -30% to -65%; inactive means above about -30%; note: % is set by controls: 0 for no effect and ±100 for the full control effect; compound concentration not given in the record
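AlphaScreen with 125 nM GST-E1A and 125 nM His-CtBP (5X stocks) in Tris pH 8.0, 300 mM NaCl, BSA, Tween 20, TCEP. Compounds preincubated 2 h at 37 deg C, then glutathione donor/nickel acceptor beads added for 1 h at 37 deg C in dark.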
gsp agonist: agonists of gsp mutant (McCune-Albright syndrome) | Potency, µM (titrated, usually from 76.9 µM), inactives show at the highest dose activation (cAMP increase), hits mostly activators | gsp mutant cells, cAMP HTRF, 30 min; control for the full effect not named in the record | 0.13% of 340,000 active; active = well fitted activation curve with a large enough effect; inconclusive = small, poorly fitted or top-dose-only effect, or another doubt; inactive = no such curve, though single readings can be large or run the other way; cell line not stated here;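 note: phosphodiesterase inhibitor Ro 20-1724 added with compounds to block cAMP breakdown; potency is the fitted concentration of half-maximal effect; nearly all actives have a fitted effect of over 60% in size; about a fifth of the inactives were tested at one dose only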
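Cells stably selected in G418 were plated at 2000/well, grown 16-24 hr, then given compounds in DMSO with the PDE inhibitor […] (300 uM solution added) for 30 min at 37C; cAMP was read by HTRF.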
gsp antagonist: gsp mutant antagonism; gsp-mutant cells, cAMP HTRF, 30 min; control for the full effect not named in the record; Potency, µM (top dose mostly 76.9 µM), without a hit: top-dose activity change, negative = inhibition, most hits filed as inhibitors; 0.4% of 340,000 active; active = falling curve of any shape with a large fitted effect; inconclusive = falling curve, mostly with a smaller effect; inactive = flat or rising curve; cell line not stated here;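 note: intracellular cAMP measured with PDE inhibitor Ro 20-1724 present during compound exposure; potency is the fitted concentration of half-maximal effect; % is set by controls: 0 for no effect and ±100 for the full control effect; nearly all actives have a fitted effect of over 65% in size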
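HTRF cAMP measurement after 30 min RT detection following 30 min, 37C compound treatment alongside […] (added as 300 uM solution) in G418-selected cells seeded at 2000/well and grown 16–24 h.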
TRPV1 PAM: enhances activation of the human vanilloid receptor TRPV1 | Q8NER1 | TRPV1-expressing cells, Fluo-8 calcium influx, capsaicin EC20 potentiation; host cell line not named in the record; control for the full effect not named in the record | potentiation, % at 8.33 µM | 0.02% of 320,000 active | AID 540277; active means potentiation above 80%; inconclusive means 30% to 80%; inactive means below 30%; note: 0% is about no effect
Target sequence (Q8NER1 whole entry, looked up): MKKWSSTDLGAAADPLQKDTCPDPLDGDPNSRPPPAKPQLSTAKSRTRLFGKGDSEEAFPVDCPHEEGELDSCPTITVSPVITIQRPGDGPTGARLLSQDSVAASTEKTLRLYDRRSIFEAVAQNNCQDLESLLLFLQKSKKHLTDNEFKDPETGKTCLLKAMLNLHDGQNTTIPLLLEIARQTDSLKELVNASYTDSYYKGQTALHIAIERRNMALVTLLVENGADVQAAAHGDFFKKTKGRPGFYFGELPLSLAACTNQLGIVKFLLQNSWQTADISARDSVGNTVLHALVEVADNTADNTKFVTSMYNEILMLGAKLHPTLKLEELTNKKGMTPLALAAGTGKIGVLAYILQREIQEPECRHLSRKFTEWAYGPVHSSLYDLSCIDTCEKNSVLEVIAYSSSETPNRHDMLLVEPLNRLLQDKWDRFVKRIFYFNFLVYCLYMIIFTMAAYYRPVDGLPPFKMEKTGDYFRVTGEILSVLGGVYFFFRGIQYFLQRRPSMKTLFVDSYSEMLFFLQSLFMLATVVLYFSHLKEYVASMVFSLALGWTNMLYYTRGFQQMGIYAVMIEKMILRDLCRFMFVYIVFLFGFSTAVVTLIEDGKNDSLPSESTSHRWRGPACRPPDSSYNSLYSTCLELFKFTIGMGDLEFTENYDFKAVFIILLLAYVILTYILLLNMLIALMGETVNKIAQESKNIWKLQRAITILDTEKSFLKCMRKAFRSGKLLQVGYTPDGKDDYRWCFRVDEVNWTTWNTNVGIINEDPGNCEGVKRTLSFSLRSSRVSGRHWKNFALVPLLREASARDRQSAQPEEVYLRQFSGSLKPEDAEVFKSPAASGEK
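Cells expressing TRPV1 were dye-loaded with Fluo-8 and read kinetically: 10 s baseline, 3 min after compound (agonist portion), then 2 min after EC20 capsaicin (allosteric enhancer portion). Calcium-bound dye fluorescence at 480/520 nm.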
Sfp inh: blocks B. subtilis Sfp PPTase activity; 3.5% of 310,000 active; AID 1490; Biochemical Sfp PPTase activity, qHTS; Potency, µM, without a hit: max response, negative = inhibition, hits mostly inhibitors; active = well fitted inhibition curve with a large enough effect; inconclusive = small, poorly fitted or top-dose-only effect, or another doubt; inactive = no such curve, though single readings can be large or run the other way;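 note: the enzyme is Sfp with the accession as filed and its product quenches rhodamine fluorescence; potency is the fitted concentration of half-maximal effect; 0% = enzyme reaction without inhibitor and -100% = no enzyme wells; top concentration of the series not given in the record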
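Buffer: 50 mM Hepes-Na pH 7.6, 10 mM MgCl2, 0.01% Nonidet P-40, 0.01% BSA. Enzyme 15 nM, pre-exposed to compound 15 min; substrates then added and fluorescence change tracked over 30 min.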
* marks the source's active call; other numbers are inactive results; [ ] = another dose, or the depositor's remark. Compounds were not picked by outcome; about 5.3% have a hit in one of these screens.

Results for Cc1cc(C)n(CC(=O)NC2CCCCC2)n1 ?
ClpP mod: 0.2%; Menin-MLL FL inh: -0.7; CtBP-E1A blk: 11.2; gsp agonist: -1.5%; gsp antagonist: 0.4%; TRPV1 PAM: 8.0; Sfp inh: 23.1%

Results for Cc1cc(CN(C)C(=O)CC2C(=O)NCCN2Cc2c(F)cccc2Cl)on1 (stereo not given) ?
ClpP mod: -5.2%; Menin-MLL FL inh: -0.8; gsp agonist: -38.0%[inhibitor]; gsp antagonist: 3.5%; TRPV1 PAM: -31.9; Sfp inh: 11.9%

What do the screens show for `FC(F)(F)c1nnc(-c2ccccc2)nc1N1CCOCC1`?
ClpP mod: -0.3%; Menin-MLL FL inh: 0.9; CtBP-E1A blk: 2.8; gsp agonist: -0.2%; gsp antagonist: 5.5%; TRPV1 PAM: -6.4; Sfp inh: 10.1%

What do the screens show for `O=C(OCn1nnc2ccccc2c1=O)c1ccc2c(=O)n3c(nc2c1)CCC3`?
ClpP mod: -7.1%; Menin-MLL FL inh: -0.2; CtBP-E1A blk: 13.0; gsp agonist: 0.7%; gsp antagonist: 6.5%; TRPV1 PAM: inconclusive; Sfp inh: 9.7%

Results for CCCCc1ccc(NC(=O)CC(C)=O)cc1 ?
ClpP mod: -0.2%; Menin-MLL FL inh: 3.5; CtBP-E1A blk: 4.5; gsp agonist: 7.8%; gsp antagonist: -0.3%; TRPV1 PAM: 4.8; Sfp inh: -1.2%

How did COC(=O)CN(C)C(=O)CC1C(=O)NCCN1CC(C)(C)C (stereo not given) do in these assays?
ClpP mod: -9.5%; Menin-MLL FL inh: -15.5; CtBP-E1A blk: -19.3; gsp agonist: -16.5%; gsp antagonist: 5.6%; TRPV1 PAM: -8.4; Sfp inh: 13.1%

Results for O=C(CSc1nnc(CNC(=O)c2cccs2)o1)NCC1CCCO1 (stereo not given) ?
ClpP mod: 0.2%; Menin-MLL FL inh: -0.5; CtBP-E1A blk: 1.0; gsp agonist: -11.7%; gsp antagonist: 6.7%; TRPV1 PAM: -2.5; Sfp inh: 16.1%

What do the screens show for `CC(C)(C)Nc1nc(NN)nc(NC(C)(C)C)n1`?
ClpP mod: -0.2%; Menin-MLL FL inh: 2.7; CtBP-E1A blk: -10.4; gsp agonist: 3.7%; gsp antagonist: 4.7%; TRPV1 PAM: 9.6; Sfp inh: 11.2%

How did O=C1c2ccccc2C(=O)N1c1cccc2cccnc12 do in these assays?
ClpP mod: -2.0%; Menin-MLL FL inh: 7.5; CtBP-E1A blk: -1.7; gsp agonist: 17.0%; gsp antagonist: 0.4%; TRPV1 PAM: 26.9; Sfp inh: 3.0%

How did CCN(CC)CCN(C(=O)/C=C/c1cccs1)c1nc2ccc(F)cc2s1 do in these assays?
ClpP mod: 1.5%; Menin-MLL FL inh: -1.8; gsp agonist: inconclusive; gsp antagonist: inconclusive; TRPV1 PAM: 5.4; Sfp inh: 7.8%

Results for CCNCC(=O)N1c2ccccc2CCc2ccc(NC(=O)OC(C)C)cc21 ?
Menin-MLL FL inh: 0.4; CtBP-E1A blk: -7.4; gsp agonist: -18.6%; gsp antagonist: 6.8%; TRPV1 PAM: 1.5; Sfp inh: -13.9%

Results for O=C(NCc1cccnc1)c1ccc(NC(=O)c2ccc([N+](=O)[O-])cc2)cc1 ?
ClpP mod: -0.6%; CtBP-E1A blk: -1.3; gsp agonist: inconclusive; gsp antagonist: -7.4%; TRPV1 PAM: -16.2; Sfp inh: -5.3%

How did Cc1ccc(-c2cn(S(=O)(=O)c3ccc(C)cc3)nc2N)cc1 do in these assays?
ClpP mod: -2.2%; Menin-MLL FL inh: -0.4; CtBP-E1A blk: 5.4; gsp agonist: 25.3%; gsp antagonist: 3.4%; TRPV1 PAM: -4.8; Sfp inh: 21.5%

Results for O=C(NC1CC(=O)N(c2ccccc2)C1)C1CC1 (stereo not given) ?
CtBP-E1A blk: 6.9; gsp agonist: 3.0%[15.4 µM]; gsp antagonist: 8.6%; TRPV1 PAM: -6.5

What do the screens show for `Cc1c(NC(=O)COC(=O)/C=C/c2ccc(Cl)cc2)c(=O)n(-c2ccccc2)n1C`?
Menin-MLL FL inh: -4.7; CtBP-E1A blk: -11.7; gsp agonist: -1.5%[15.4 µM]; TRPV1 PAM: 5.0; Sfp inh: 11.5%

What do the screens show for `O=C(CSCC(=O)Nc1nc(-c2ccc3c(c2)OCO3)cs1)Nc1nccs1`?
ClpP mod: -2.0%; Menin-MLL FL inh: 6.3; CtBP-E1A blk: -3.0; gsp agonist: 5.9%; gsp antagonist: 31.6µM*; TRPV1 PAM: 9.5; Sfp inh: -20.5%

What do the screens show for `O=C(Nc1ccccc1N1CCCC1)c1ccco1`?
ClpP mod: -0.4%; Menin-MLL FL inh: -1.0; CtBP-E1A blk: -2.6; gsp agonist: -15.1%; gsp antagonist: -11.1%; TRPV1 PAM: 4.7; Sfp inh: 4.6%

What do the screens show for `O=C(c1nc2ccc(Cl)cn2c1CNCCn1ccnc1)N1CCCCCCC1`?
ClpP mod: -3.0%; Menin-MLL FL inh: -6.9; gsp agonist: 25.9%; gsp antagonist: 1.1%; TRPV1 PAM: -12.0; Sfp inh: 7.9%

How did CC(C)C1CCC(C(=O)N[C@H](Cc2ccccc2)C(=O)O)CC1 (stereo not given in full) do in these assays?
Menin-MLL FL inh: -1.4; TRPV1 PAM: 3.6; Sfp inh: -11.2%

How did CCc1nnc(NC(=O)c2cccc(S(=O)(=O)N3CCN(c4ccccc4)CC3)c2)s1 do in these assays?
ClpP mod: -2.0%; Menin-MLL FL inh: 2.5; CtBP-E1A blk: 3.9; gsp agonist: -34.5%[inhibitor]; gsp antagonist: -0.9%; TRPV1 PAM: inconclusive; Sfp inh: -6.9%

How did O=C(Nc1nccs1)c1ccc(S(=O)(=O)NCC2CCCCC2)cc1 do in these assays?
ClpP mod: 7.3%; Menin-MLL FL inh: 0.1; CtBP-E1A blk: -2.1; gsp agonist: -12.5%; gsp antagonist: -23.2%; TRPV1 PAM: -2.7; Sfp inh: 14.4%

What do the screens show for `Cc1nnc(SCC(=O)Nc2nonc2C)s1`?
Menin-MLL FL inh: 0.3; CtBP-E1A blk: -0.9; gsp agonist: -5.3%; gsp antagonist: 2.7%; TRPV1 PAM: 10.1; Sfp inh: 7.4%

What do the screens show for `COc1ccccc1-c1c(C)nn2c(C)c(C(C)=O)cnc12`?
ClpP mod: -0.3%; Menin-MLL FL inh: 3.0; CtBP-E1A blk: 7.8; gsp agonist: 17.4%; gsp antagonist: -0.1%; TRPV1 PAM: -14.2; Sfp inh: 5.4%

What do the screens show for `CCOc1ccc(C(=O)Nc2ccc(N3CCN(C)CC3)cc2)cc1`?
ClpP mod: -1.8%; Menin-MLL FL inh: 6.2; CtBP-E1A blk: -0.1; gsp agonist: inconclusive; gsp antagonist: 4.0%; TRPV1 PAM: -6.7; Sfp inh: -5.1%

What do the screens show for `O=C1NC[C@H](c2ccccc2)OC(=O)[C@H](Cc2ccc(F)cc2)C/C=C\C[C@H]1CC(=O)N(CCO)Cc1ccccc1`?
ClpP mod: 1.3%; CtBP-E1A blk: 22.1; gsp agonist: -8.2%; gsp antagonist: -29.1%

Results for COc1ccccc1NC(=O)NCCCCc1ccccc1 ?
ClpP mod: -1.1%; Menin-MLL FL inh: 0.0; CtBP-E1A blk: -0.8; gsp agonist: 2.5%; gsp antagonist: 3.3%; TRPV1 PAM: -3.6; Sfp inh: 5.4%

How did CC(=O)N1C(=O)C2(C(C#N)=C(N)Oc3c2c(C)nn3-c2ccccc2)c2ccccc21 (stereo not given) do in these assays?
ClpP mod: -0.7%; Menin-MLL FL inh: -1.3; CtBP-E1A blk: -6.7; gsp agonist: 12.8%; gsp antagonist: -7.1%; TRPV1 PAM: -6.5; Sfp inh: -13.9%

How did Cc1csc(Nc2ccc(C(=O)O)cc2)n1 do in these assays?
ClpP mod: -4.1%; Menin-MLL FL inh: 8.8; gsp agonist: -4.1%; gsp antagonist: -9.5%; TRPV1 PAM: 2.6; Sfp inh: 10.1%

How did Cc1cccc(C(C)C)c1NC(=O)C(C)OC(=O)Cn1cnc2c1c(=O)n(C)c(=O)n2C (stereo not given) do in these assays?
ClpP mod: inconclusive; CtBP-E1A blk: 5.0; gsp agonist: 5.9%[15.4 µM]; gsp antagonist: -4.3%; TRPV1 PAM: -4.8

What do the screens show for `CCOC(=O)C1C(=O)NC(N2CCN(CC)CC2)=NC1c1ccccc1` (stereo not given)?
ClpP mod: 1.7%; Menin-MLL FL inh: 0.5; CtBP-E1A blk: 4.0; gsp agonist: -28.5%; gsp antagonist: 17.9%; TRPV1 PAM: -17.6; Sfp inh: -0.4%

How did O=C(CCCC(=O)OCC(=O)c1ccc(Cl)cc1Cl)Nc1cc(C(F)(F)F)ccc1Cl do in these assays?
ClpP mod: -3.2%; Menin-MLL FL inh: -0.6; CtBP-E1A blk: 17.9; gsp agonist: -23.1%; gsp antagonist: 1.0%[15.4 µM]; TRPV1 PAM: -8.2; Sfp inh: 25.7%

How did Cc1ccc(-c2cc(C(F)F)nc(S(C)(=O)=O)n2)cc1 do in these assays?
Menin-MLL FL inh: -6.2; CtBP-E1A blk: 6.4; gsp agonist: 2.9%[15.4 µM]; gsp antagonist: 9.7%; TRPV1 PAM: 3.7; Sfp inh: 14.4%

Results for CCCNC(=O)COC(=O)C1CCN(S(=O)(=O)c2ccc3c(c2)OCCO3)CC1 ?
ClpP mod: -1.1%; CtBP-E1A blk: -17.3; gsp agonist: -10.4%[15.4 µM]; gsp antagonist: 1.6%; TRPV1 PAM: 6.2

Results for CCOc1cc(C(=O)Nc2ccc3c(c2)OCO3)ccc1OC(F)F ?
ClpP mod: -2.8%; Menin-MLL FL inh: -0.9; CtBP-E1A blk: 7.2; gsp agonist: -9.2%; gsp antagonist: 15.6%; TRPV1 PAM: -8.2; Sfp inh: 8.9%

Results for O=C(COC(=O)C(O)c1ccccc1)c1ccc2c(c1)OCCO2 (stereo not given) ?
ClpP mod: -4.5%; Menin-MLL FL inh: -0.1; CtBP-E1A blk: 0.1; gsp agonist: -50.0%[inhibitor]; gsp antagonist: 3.7%; TRPV1 PAM: -31.7; Sfp inh: -0.8%

How did OC(COC(c1ccc(F)cc1)c1ccc(F)cc1)CN1CCc2ccccc2C1 (stereo not given) do in these assays?
ClpP mod: -8.2%; Menin-MLL FL inh: 3.9; CtBP-E1A blk: -2.3; gsp agonist: -56.1%[inhibitor]; gsp antagonist: 3.8%; TRPV1 PAM: -9.0; Sfp inh: -19.0%
